HNF4A DNA FP – change in binding of human HNF4 alpha to DNA. P41235. HNF4a-FITC DNA binding, fluorescence polarization, 1 h. activity change, % at 10 µM. 360,000 tested, 0.3% active; in the data active means activity change above about 30%, passing the limit was not always enough;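 further: controls were the assay level and a saturating level of protein; the project sought stronger binding though the title names inhibitors; some compounds called inactive have numbers as strong as hits; positive values seem to mean higher polarization but the record does not say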
FGF22 binding – FGF22 (human) thermal shift binding; 340,000 tested, 1.5% active; AID 651658; Q9HCT0; calls only at 9.99 µM; recombinant FGF22 thermal shift, SYPRO orange fluorescence; percent of sucrose octasulfate shift, DMSO zero;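 active means melting point raised past a set limit in the mean and every replicate; three in four hits are not shown here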
ALR H2O2 inh – blocks human ALR sulfhydryl oxidase activity. P55789. purified ALR, DTT oxidation, H2O2 HRP-luminol luminescence. inhibition, % (test concentration not listed). 290,000 tested, 3.8% active. AID 485317;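 active means mean and each replicate at 75% or more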;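 further: stock transfer was 7.5 nL into about 7.5 µL; 0% = neutral wells and 100% = wells with inactivated enzyme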
LANA-H2B inh – blocks KSHV LANA binding to histone H2A/H2B. cell-free LANA-H2A/H2B peptide, fluorescence polarization. inhibition, % (test concentration not listed). 320,000 tested, 0.6% active. AID 2629; in the data active means inhibition mostly above about 10%, no sharp cut-off; inactive means mostly below about 6.7%;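 further: stock transfer was 7.5 nL into about 10 µL; 0% = median of vehicle wells and 100% = median of positive control wells; one replicate is shown; the record names a cut of 25% in any replicate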
Target sequence (Q9QR71 whole entry, looked up): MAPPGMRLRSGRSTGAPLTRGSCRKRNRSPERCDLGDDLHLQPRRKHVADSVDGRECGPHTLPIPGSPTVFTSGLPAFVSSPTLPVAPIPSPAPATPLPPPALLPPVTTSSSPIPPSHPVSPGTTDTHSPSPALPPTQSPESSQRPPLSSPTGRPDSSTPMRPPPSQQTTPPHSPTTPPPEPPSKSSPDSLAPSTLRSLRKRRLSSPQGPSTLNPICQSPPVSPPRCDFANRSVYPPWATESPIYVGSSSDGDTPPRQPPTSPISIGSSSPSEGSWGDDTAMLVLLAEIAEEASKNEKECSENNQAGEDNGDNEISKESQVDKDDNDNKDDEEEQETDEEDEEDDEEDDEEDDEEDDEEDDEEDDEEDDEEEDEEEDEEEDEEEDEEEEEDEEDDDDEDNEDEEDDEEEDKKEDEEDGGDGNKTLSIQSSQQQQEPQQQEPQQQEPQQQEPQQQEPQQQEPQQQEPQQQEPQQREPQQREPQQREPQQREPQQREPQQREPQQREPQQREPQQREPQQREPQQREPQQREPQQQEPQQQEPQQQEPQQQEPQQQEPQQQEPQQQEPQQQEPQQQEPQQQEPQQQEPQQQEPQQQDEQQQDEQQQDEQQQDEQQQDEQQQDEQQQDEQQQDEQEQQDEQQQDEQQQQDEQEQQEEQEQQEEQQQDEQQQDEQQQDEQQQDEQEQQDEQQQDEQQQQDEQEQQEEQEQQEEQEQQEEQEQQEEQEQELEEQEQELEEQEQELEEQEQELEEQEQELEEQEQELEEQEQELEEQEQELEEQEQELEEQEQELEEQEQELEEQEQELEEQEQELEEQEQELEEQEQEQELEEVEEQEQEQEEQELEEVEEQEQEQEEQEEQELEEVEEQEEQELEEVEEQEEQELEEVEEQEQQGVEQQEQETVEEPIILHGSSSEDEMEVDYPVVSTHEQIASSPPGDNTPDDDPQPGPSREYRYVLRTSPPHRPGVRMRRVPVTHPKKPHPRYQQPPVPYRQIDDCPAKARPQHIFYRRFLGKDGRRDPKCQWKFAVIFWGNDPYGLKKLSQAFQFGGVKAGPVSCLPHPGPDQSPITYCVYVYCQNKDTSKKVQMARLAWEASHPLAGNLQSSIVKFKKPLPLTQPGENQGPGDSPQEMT
E coli growth – E. coli growth inhibition; Escherichia coli growth, OD600, 23 h; active compounds read low; OD600 absorbance (no concentration beside the values); 330,000 tested, 0.21% active;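 active means OD600 absorbance below the run mean of sample wells minus 3.6 SD, in any replicate, cut at about 0.56 in these data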;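 further: stock transfer was 300 nL into about 60 µL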
Beta2AR agonist – human beta-2 adrenergic receptor agonism by FAP | Am2.2-beta2AR cells, FAP receptor internalization, flow cytometry; reference of the scale not given here | response, % (test concentration not listed) | 340,000 tested, 0.43% active | P07550 | AID 504454;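 active means response above a set limit, near 3 SD of response in nonfluorescent compounds, cut at about 42% in these data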;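 further: stock transfer was 100 nL into about 11 µL; a reference agonist was the positive control; negative values mostly stem from fluorescent compounds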
UCH37 DUB inh – blocks the human deubiquitinase UCH37. inhibition, % (concentration not given with the values). purified proteasome/UCH37, Ub-AMC cleavage fluorescence. 330,000 tested, 0.33% active. Q9Y5K5. AID 588478;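 active means mean of two replicates above 20%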;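 further: 0% = compound-free wells with enzyme and 100% = wells lacking proteasome; stock transfer was 100 nL into about 20 µL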
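Signal – fluorescence, ex 355 nm, em 460 nm · System – Proteasome-bound UCH37 · Input – 0.15 nM proteasome as dispensed · Timing – 30 min preincubation with enzyme, 25 min cleavage at room temperature · Read-out basis – percent inhibition of cleavage signal versus uninhibited and no-proteasome wells · Medium – Tris-HCl pH 7.4 with ATP-MgCl2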
* = called active by the depositor; i = inactive; x = not tested or not shown. This is a subset; count on the stated rates, not on these rows.

Below each SMILES: HNF4A DNA FP, FGF22 binding, ALR H2O2 inh, LANA-H2B inh, E coli growth, Beta2AR agonist, UCH37 DUB inh
1	O=C(COc1ccc(S(=O)(=O)N2CCOCC2)cc1)N1CCOCC1
  -1.7, i, 37, -2.8, 0.69, 7, 0.0
2	CC(C)CCSc1ncnc2c1oc1nc3c(cc12)COC(C)(C)C3
  -1.3, i, x, x, 0.64, -5, 0.5
3	CC1(C)CC(NCc2ccncc2)CC(C)(C)N1
  -2.6, i, 0, -6.3, 0.68, 3, 3.1
4	CC(=O)Cn1cnc2sc(-c3ccccc3)cc2c1=O
  2.7, x, -4, -0.9, 0.72, 5, 2.4
5	O=C1[C@H](CC[C@H](O)c2ccc(F)cc2)[C@@H](c2ccc(O)cc2)N1c1ccc(F)cc1
  x, x, 12, -2.9, x, x, 1.4
6	Cc1noc(C(F)(F)F)c1C(=O)NNC(=O)c1cccc(C(F)(F)F)c1
  0.7, i, -11, 4.4, 0.65, -2, 2.0
7	CCCCNC(=O)C1CCC(CNc2c(N3CCC(C)CC3)c(=O)c2=O)CC1 (stereo unspecified)
  0.8, i, -1, -1.7, 0.68, 8, 0.8
8	COc1ccc(OC)c(NC(=O)c2sc3ncnc(N4CCN(c5ccccn5)CC4)c3c2C)c1
  -2.5, x, -11, 2.5, x, 5, x
9	Cc1cc(=O)oc2cc(OCC(O)CN3CCN(c4ccc(F)cc4)CC3)ccc12 (stereo unspecified)
  2.5, x, 28, -0.7, 0.67, 2, -13
10	OCCCn1c(C2CCCN2c2nc(-c3ccc(F)cc3)cs2)nc2cc(Cl)c(Cl)cc21 (stereo unspecified)
  2.4, i, 12, -2.0, 0.69, -7, 3.8
11	C=CCC(C#Cc1ccccc1)[N+](C)(C)CC=C (stereo unspecified)
  15, x, -12, -0.3, 0.76, 2, 2.4
12	CCc1ccccc1NS(=O)(=O)Cc1ccccc1
  3.6, i, 1, -2.3, 0.63, 1, 3.1
13	Nc1ncnc2c1C1(CCCCC1)Cc1ccccc1-2
  -3.6, x, x, x, 0.69, 5, -5.0
14	O=C(O/N=C\c1ccc(N2CCCCC2)c([N+](=O)[O-])c1)c1c(F)cccc1F
  -1.4, x, -5, -3.5, x, -19, x
15	CCCc1cc(=O)[nH]c(SCc2ccccc2Cl)n1
  1.3, x, 99*, 7.1, 0.66, -1, 3.4
16	CN(C)C(=S)c1ccc2ccccc2n1
  3.0, x, -15, 0.7, 0.67, -11, 1.1
17	CCc1cc2cc3c(cc2nc1SCC(=O)OC(C)C)OCO3
  2.7, i, 3, -8.5, 0.67, 1, 0.5
18	Cc1nnc(-c2cnn(C)c2N)n1CCCN1CCOCC1
  -1.0, i, x, x, 0.74, -1, -1.7
19	COc1ccc(OCCOC(=O)c2nc3nccc(C)n3n2)cc1
  -1.5, i, -2, -3.6, 0.66, -2, 4.6
20	CCCCCc1nc2c(c3c1CCCC3)CCCC2
  x, i, -4, -4.2, x, x, x
21	COC(=O)C(c1cc(OC)c(O)c(OC)c1)(N1CCNC(C)C1)C(F)(F)F (stereo unspecified)
  3.3, x, -6, -3.1, 0.69, -1, 1.3
22	CCCC(=O)Nc1ccc(Cl)c(NC(=O)c2cccc(OC)c2)c1
  0.3, x, x, -4.4, 0.67, 4, 1.9
23	COC(=O)/C=C1/N/C(=N\c2nc(C)cc(C)n2)N(c2ccc(Cl)cc2)C1=O
  3.7, x, 2, -0.3, x, -2, x
24	COc1ccc(N2C(=O)CC(Sc3ccccc3C(=O)O)C2=O)c([N+](=O)[O-])c1 (stereo unspecified)
  4.8, i, 8, -0.4, 0.66, 3, 1.3
25	Cc1cc(Br)ccc1NC(=O)CN(C)Cc1cccs1
  1.4, i, x, -0.5, 0.69, 0, -0.8
26	O=[N+]([O-])c1ccccc1S(=O)(=O)c1ccccc1[N+](=O)[O-]
  5.5, i, -20, -2.4, 0.68, 0, 3.0
27	Cc1ccc(C(c2nnnn2CC2CCCO2)N2CCN(C)CC2)cc1 (stereo unspecified)
  -0.7, i, -6, 4.8, 0.67, -2, 3.8
28	COc1ccccc1CNC(=O)CN1C(=O)NC2(CCCc3sccc32)C1=O (stereo unspecified)
  -1.3, i, -1, 1.9, 0.67, -11, 4.5
29	O=[N+]([O-])c1cccc(C=NNC(=S)NC23CC4CC(CC(C4)C2)C3)c1
  -2.3, i, x, x, x, -3, x
30	CCCCNC(=O)c1ccc(NC(C)=O)c(Cl)c1
  2.3, x, -9, 9.2, 0.65, 5, 2.8

Results in HNF4A DNA FP (2 entries from above):
item	compound	HNF4A DNA FP
21	COC(=O)C(c1cc(OC)c(O)c(OC)c1)(N1CCNC(C)C1)C(F)(F)F (stereo unspecified)	3.3
22	CCCC(=O)Nc1ccc(Cl)c(NC(=O)c2cccc(OC)c2)c1	0.3

Following part.
Below each SMILES: HNF4A DNA FP, FGF22 binding, ALR H2O2 inh, LANA-H2B inh, E coli growth, Beta2AR agonist, UCH37 DUB inh
31	COc1cccc(O)c1CN1CCC(Oc2ccc(C(=O)NCc3ccccn3)cc2)CC1
  2.8, i, 19, 0.6, 0.65, -4, 4.4
32	C=C(C)COc1cc2oc(=O)c(CC(=O)N3C[C@H]4C[C@@H](C3)c3cccc(=O)n3C4)c(C)c2cc1Cl
  1.9, i, x, 3.3, 0.69, -24, -279
33	CC(C)COC(=O)c1cccc2c1-c1ccccc1/C2=N\O
  -0.8, x, 13, 1.8, x, 2, x
34	CCOC(=O)c1ccccc1NS(=O)(=O)c1ccccc1
  1.9, x, -1, 6.2, 0.64, 11, 3.5
35	CCN1C(=O)CSC1=Nc1ccc(C(=O)O)cc1
  1.1, i, 2, 2.7, 0.7, -2, 5.0
36	CCOC(=O)C(NCc1ccc2c(c1)OCO2)(NC(=O)CC)C(F)(F)F (stereo unspecified)
  1.0, x, -18, -0.5, 0.7, -11, 3.6
37	COc1ccc(/C(N)=N/OC(=O)Oc2ccccc2)cc1OC
  -4.4, i, -3, 2.4, 0.66, 20, 6.2
38	O=C(CN1C(=O)NC2(CCCC2)C1=O)Nc1cc(Cl)ccc1Oc1ccccc1
  5.1, i, -2, 0.4, 0.66, 3, 6.0
39	CC(C)c1nc(SCC(=O)NC(=O)NC(C)(C)C)n[nH]1
  -4.5, i, -1, 0.7, 0.69, -5, 0.8
40	CCOC(=O)c1cc2occc2n1CC(=O)N1CCOCC1
  -1.1, x, 3, 3.0, 0.69, -8, 1.0
41	CCN(CC)S(=O)(=O)c1ccc(NC(=O)c2cc(-c3cccs3)nc3ccccc23)cc1
  -0.2, i, x, -6.3, 0.72, 4, -121
42	O=C(COC(=O)CNC(=O)c1ccc(Cl)cc1Cl)Nc1cccc(S(=O)(=O)N2CCCC2)c1
  5.0, i, -7, -2.6, x, -3, x
43	Cc1ccc(OCC(=O)c2cc(C)n(Cc3ccco3)c2C)c([N+](=O)[O-])n1
  -1.1, i, x, 0.6, 0.69, -2, 5.5
44	CCOc1ccc([C@@H]2CC=C(C(=O)O)CN2S(=O)(=O)c2ccc(C)cc2)cc1
  4.1, i, -9, 2.2, x, -5, 3.2
45	Cc1ccsc1C(=O)N/N=C/c1ccc2c(c1)OCO2
  -1.7, i, -20, 2.5, x, 3, x
46	CCn1c2ccccc2c2cc(NC(=O)CSc3nnc(-c4cccc(Cl)c4)o3)ccc21
  -0.3, x, -5, 1.0, 0.8, 10, -6.8
47	COC(=O)C1CN(C(=O)COc2cc(C)cc(C)c2)c2ccccc2O1 (stereo unspecified)
  -2.2, i, -1, 0.3, 0.67, 1, 4.5
48	C=CCN1C(=O)CN=C1Nc1ccc(F)cc1
  1.7, i, 3, -3.0, 0.68, 6, -0.4
49	Cc1ccc2[nH]c(O)c(N=NC(=O)C(C)n3cnc4ccccc4c3=O)c2c1 (stereo unspecified)
  1.8, i, 39, 3.1, 0.69, -1, 7.1
50	CCOc1ccc(-n2nnnc2SCC(=O)c2ccccc2)cc1
  -1.0, x, -5, -1.2, 0.77, -8, -1.6
51	CC(C)Oc1ccc(CC(=O)NNC(=S)Nc2ccc(Br)cc2)cc1
  0.8, i, 4, -0.5, 0.72, -11, -1.7
52	CS(=O)(=O)c1cc([N+](=O)[O-])c(Sc2nc3ccccc3[nH]2)c([N+](=O)[O-])c1
  1.1, i, -26, -0.2, 0.66, 63*, 6.8
53	CCc1cc(=O)oc2cc(C)cc(OC(C)C(=O)NCCCN3CCCC3=O)c12 (stereo unspecified)
  -3.8, i, 3, 11, 0.66, 0, -179
54	C=CCNC(=O)c1ccc(Cn2c(=S)[nH]c3cc4c(cc3c2=O)OCO4)cc1
  16, x, -3, 0.5, 0.76, 6, 5.4
55	COc1cccc(CNC(=O)C2CCCN2S(=O)(=O)c2ccc3c(c2)C(C)(C)C(=O)N3C)c1 (stereo unspecified)
  -2.2, i, -4, 3.6, 0.7, 0, 5.3
56	NS(=O)(=O)c1ccc(-c2ccc(/C=C3\SC(=O)NC3=O)o2)cc1
  -1.2, i, -3, -1.1, x, 13, x
57	CCOC(=O)C1=C(COC(=O)CCc2ccc(CC)cc2)NC(=O)NC1C (stereo unspecified)
  -4.8, i, -17, 1.9, 0.72, -8, 5.4
58	O=C(Cn1c(=O)sc2ccccc21)Nc1ccccc1C(=O)O
  3.8, x, -19, 0.1, 0.71, -10, -2.2
59	CSc1ncc(CNc2cc([N+](=O)[O-])ccc2C)c(N)n1
  -0.1, i, 1, 5.7, 0.66, -21, 0.4
60	CC(C)N(C(=O)C1CC(=O)OC12CCCCC2)C(C)C (stereo unspecified)
  -2.1, x, -25, -1.1, 0.69, -4, 2.2
61	CN(CC(=O)Nc1ccc(F)c(F)c1F)C(=O)C1CC(=O)N(C2CCCC2)C1 (stereo unspecified)
  -3.2, i, x, x, 0.66, -5, 4.7
62	Cn1nnnc1SCC(=O)NCc1cccc(C(=O)O)c1
  -1.6, x, -20, -3.3, 0.69, 4, 1.0
63	CCOC(=O)/C=C/C(=O)Nc1ccc(Oc2ccccc2)cc1
  -1.7, i, 6, -1.7, 0.66, -6, 0.3
64	CCn1c(CC(=O)Nc2ccc(F)cc2)nnc1SCC(=O)NC1CCCC1
  0.3, i, -5, -0.9, 0.66, -1, 1.3
65	COc1ccc(S(=O)(=O)Nc2ccc(N3CCOCC3)cc2)cc1[N+](=O)[O-]
  1.3, i, 65, -5.3, 0.73, -9, 1.4
66	CC(C)c1ccc(OCC(=O)NC2CCCC2)cc1
  -0.4, i, -7, 10, 0.72, -3, 1.3
67	S=c1[nH]nc(C2CCCCC2)n1/N=C/C=C/c1ccccc1
  -0.7, x, 68, -5.0, x, 11, x
68	Cc1ccc(O)c(NC(=O)CSc2n[nH]c(C)c2[N+](=O)[O-])c1
  2.6, i, 4, -4.0, 0.65, 11, 3.7
69	O=C(CCN1C(=O)c2ccccc2C1=O)N1CCN(c2ccccn2)CC1
  -2.6, x, 2, 4.5, 0.65, 3, 1.2
70	CON(C)C(=O)CCN(Cc1ccccc1)C(=O)OC(C)(C)C
  -2.2, i, -2, 0.2, 0.71, -6, -4.1
71	CCCOc1ccc(OCCCCNC(C)CC)cc1 (stereo unspecified)
  0.2, x, 1, 2.0, 0.67, -3, 5.2

Source: PubChem BioAssay
